Mtb H37Rv – Mycobacterium tuberculosis H37Rv growth inhibition, cell based, confirmatory dose response (AID 1949); M. tuberculosis H37Rv growth inhibition; most inactive calls were filed without a number and no value below 0 was filed; one-dose inhibition, % at 10 µg/mL; IC50 in µg/mL for titrated hits; 100,000 compounds, 1.6% hits;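 active means confirmed in a dose series; inconclusive means about 50% or more but not retested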;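 further: bacteria grown 7 days with compound before Alamar blue readout; 0% = untreated bacteria and 100% = reference antibiotic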
* = called active by the depositor; i = inactive; ? = inconclusive. Only part of the results is shown. The share of hits here may be higher or lower than overall.

SMILES	Mtb H37Rv
COc1ccc(C2NC(=S)NC(C)=C2C(=O)Nc2ccccc2C)cc1 (stereo not given)	i
COc1ccccc1OC(=O)c1ccccc1[N+](=O)[O-]	i
C=CCNCc1ccc(OC)c(OC)c1	i
CCn1c(Cc2ccc(OC)cc2)nc2ccccc21	4%
Cc1ccc(-c2onc3ccc(Cl)cc23)cc1	2%
CCCc1cc(C(=O)OC)c(NC(=O)C2CCC2)s1	i
O=C(CN(Cc1ccc(Cl)cc1Cl)S(=O)(=O)c1ccc(Cl)cc1)NCc1cccnc1	3%
O=C(c1ccc(Br)cc1)N1CCC(C(=O)N2CCN(Cc3ccccc3)CC2)CC1	i
N#Cc1ccsc1NC(=O)Cc1c(F)cccc1Cl	1%
COc1ccc(OC)c(NC2=NC3(CCCCC3)N=C(N)N2)c1	i

Looked up one by one from the list above, 6 records:
SMILES	Mtb H37Rv
COc1ccccc1OC(=O)c1ccccc1[N+](=O)[O-]	i
O=C(CN(Cc1ccc(Cl)cc1Cl)S(=O)(=O)c1ccc(Cl)cc1)NCc1cccnc1	3%
COc1ccc(C2NC(=S)NC(C)=C2C(=O)Nc2ccccc2C)cc1 (stereo not given)	i
N#Cc1ccsc1NC(=O)Cc1c(F)cccc1Cl	1%
CCCc1cc(C(=O)OC)c(NC(=O)C2CCC2)s1	i
Cc1ccc(-c2onc3ccc(Cl)cc23)cc1	2%

Carrying on.
SMILES	Mtb H37Rv
O=C(CSc1nc2ccccc2c(=O)n1-c1ccccc1)NCc1ccc2c(c1)OCO2	i
C=CCn1c(SCc2c(C)noc2C)nc2scc(-c3ccc(Cl)cc3)c2c1=O	9%
CC(=O)Nc1ccc(C(=O)CSc2nc3ccccc3o2)cc1	4%
CCOc1ccc(Br)cc1S(=O)(=O)N1CCN(c2ccccc2)CC1	2%
O=C(CSc1nnc(C(O)c2ccccc2)n1-c1ccccc1)Nc1cccc(Cl)c1 (stereo not given)	i
Clc1ccccc1-c1nn2c(COc3ccccc3)nnc2s1	1%
CCC(C)NS(=O)(=O)c1ccc(NC(=O)CCCOc2ccccc2)cc1 (stereo not given)	i
CC(C)C(NC(=O)c1ccc(Cl)cc1)c1nnc(SCC(=O)Nc2ccc(I)cc2)n1C (stereo not given)	28%
CC(NC(=O)c1ccc(Cl)cc1)C(=O)NC(C)(C)CO (stereo not given)	4%
CS(=O)(=O)Nc1ccc(-c2cn3cccnc3n2)cc1	i
CC(C)CNS(=O)(=O)c1ccc(CCC(=O)N2CCOCC2)cc1	i
COC(=O)c1cc(C)sc1NC(=O)CCC(=O)O	i
CSc1nsc(SCC(=O)NC2=NC(=O)C(C)S2)n1 (stereo not given)	2%
CC1=C(C(=O)OC2CCCCCC2)C(c2cccc([N+](=O)[O-])c2)C2=C(CC(C)(C)CC2=O)N1 (stereo not given)	7%
O=C(Nc1ccc2oc(=O)ccc2c1)C(Cl)(Cl)Cl	i
Cc1cccc(-n2c(N)cc(=O)nc2SCC(=O)Nc2ccc(Cl)cn2)c1	i
CCC(C)c1ccccc1OCC(=O)Nc1sc(C)c(C)c1C(N)=O (stereo not given)	i
CCOC(=O)c1c(C)oc2cc(Br)c(OCC(N)=O)cc12	1%
CN(C)CCNCCOc1ccc2ccccc2c1Br	i
O=C(Nc1cnn(Cc2ccc(Cl)cc2)c1)c1cnccn1	i

Sorted by number of heavy atoms (low to high): part of the list above
SMILES	Mtb H37Rv
O=C(Nc1ccc2oc(=O)ccc2c1)C(Cl)(Cl)Cl	i
CSc1nsc(SCC(=O)NC2=NC(=O)C(C)S2)n1 (stereo not given)	2%
CS(=O)(=O)Nc1ccc(-c2cn3cccnc3n2)cc1	i
CCOC(=O)c1c(C)oc2cc(Br)c(OCC(N)=O)cc12	1%
O=C(Nc1cnn(Cc2ccc(Cl)cc2)c1)c1cnccn1	i
CC(C)CNS(=O)(=O)c1ccc(CCC(=O)N2CCOCC2)cc1	i
CCC(C)c1ccccc1OCC(=O)Nc1sc(C)c(C)c1C(N)=O (stereo not given)	i
Cc1cccc(-n2c(N)cc(=O)nc2SCC(=O)Nc2ccc(Cl)cn2)c1	i
CC(C)C(NC(=O)c1ccc(Cl)cc1)c1nnc(SCC(=O)Nc2ccc(I)cc2)n1C (stereo not given)	28%
CC1=C(C(=O)OC2CCCCCC2)C(c2cccc([N+](=O)[O-])c2)C2=C(CC(C)(C)CC2=O)N1 (stereo not given)	7%

Continuation:
SMILES	Mtb H37Rv
O=C(CSc1nc(-c2ccco2)cc(C(F)(F)F)n1)NN1CCOCC1	i
OCCNC(=S)Nc1ccc(Cl)cc1Cl	i
COC(=O)c1cccc(NC(=O)Cc2ccccc2[N+](=O)[O-])c1C	0%
CC(=O)N/C(=N\c1nc(C)cc(C)n1)Nc1cccc(C(F)(F)F)c1	i
O=S(=O)(NS(=O)(=O)c1ccccc1)c1ccccc1	i
COc1ccc(OC)c(C(C)NC(=O)c2ccc(C)cc2)c1 (stereo not given)	i
Cn1cc(C(=O)NNC(=S)Nc2ccc(Br)cc2Cl)c2ccccc21	i
O=C(CCCN1C(=O)c2ccccc2C1=O)Nc1nc2ccc([N+](=O)[O-])cc2s1	3%
COc1cc(C)c(C)cc1S(=O)(=O)N1CCN(c2ccccc2)CC1	i
CCOc1ccc(C(=O)NC(=S)Nc2ccc(N3CCC(C)CC3)cc2)cc1[N+](=O)[O-]	i
O=C(Nc1ncn[nH]1)c1cc2ccccc2o1	i
CC(=O)Nc1cccc(OC(=O)N(C)C)c1	i
COc1ccccc1-c1nnc(SCC(=O)NCc2c(C)c(Cl)cc(C(C)C)c2O)o1	2%
CCOC(=O)c1c(NC(=O)CSc2nc(C)cc(C)n2)sc(C)c1C	i
O=C(CN(Cc1ccc(Cl)cc1)S(=O)(=O)c1ccc(Br)cc1)NC1CC1	i
Cc1ccc(OCC(=O)Nc2cc(Cl)ccc2Cl)c(C)c1	i
CSc1nc(N)nc(SCC(=O)c2ccc(Cl)s2)c1C#N	i
CN(C)S(=O)(=O)c1cc(C(=O)N2CCN(Cc3ccc(Cl)cc3)CC2)c(Cl)cc1Cl	i
S=c1[nH]c2cc3ccccc3cc2[nH]1	?
O=C(c1ccccc1-c1ccccc1)N1CCCCCC1	i
Cc1cc(C)c2c3c(cn2n1)c(=O)n(C)c(=O)n3C	i
O=C(NC1CCCCCC1)c1cccc(COc2ccccc2Cl)c1	i
COc1cc(NC(=O)CSc2nc(C)cc(=O)[nH]2)c(OC)cc1Cl	i
Cc1ccc2c(c1)nc(NCCO)n2C	1%
Cc1nc(-c2cc3ccccc3oc2=O)cc2c1c(=O)oc1ccccc12	i
COCCNC(=O)c1c(C)cc(C)cc1C	i
CC(C)(C)c1ccc(OC(=O)CN2C(=O)C3C4CCC(C4)C3C2=O)cc1 (stereo not given)	i
Cc1ccccc1NC(=S)NC(=O)Cc1cccc2ccccc12	i
Cc1cccc(N2C(=O)CC(SCC(=O)Nc3ccc(F)cc3)C2=O)c1 (stereo not given)	i
CCOc1ccc(NC(=O)CSc2nnc(NC(=O)CCc3ccccc3)s2)cc1	i
CCc1ccc(OCC(=O)Nc2ccc(N3CCN(C(=O)c4ccc(C)cc4)CC3)cc2)cc1	i
Cn1nc(-c2ccc(C(=O)Nc3ccc4c(c3)C(=O)OC4)cc2)c2ccccc2c1=O	3%
O=C(NCc1ccc(F)cc1)C1CCCC1	i
COc1ccc(NC(=O)CN(c2cc(Cl)ccc2OC)S(C)(=O)=O)cc1Cl	i
Cc1ccccc1-n1c(SCC(=O)Nc2ccccc2)nc2sc3c(c2c1=O)CC(C)(C)OC3	i
Cc1cc(C)cc(OCC(=O)N2CCc3ccccc3C2)c1	i
O=C(NCc1ccccn1)C(=O)Nc1ccc(Cl)cc1	i
COCCNCCSc1ccc(Cl)cc1	i
COc1ccccc1NC(=O)c1cn(-c2ccccc2)nc1-c1ccc(Cl)s1	i
COC(=O)c1cc(Cc2ccccc2)sc1NC(=S)Nc1ccc(Cl)cc1F	1%
Cc1c(C#N)c2ccccc2n1CC(=O)N1CCc2ccccc21	i
CC(=O)Nc1cc(C(=O)OCc2ccc(Br)cc2)ccc1C	i
CCN(CC)S(=O)(=O)c1ccc(NCc2ccccc2)nc1	1%
Cc1ccc(C)c(NC(=O)CN(c2ccc(Br)cc2)S(=O)(=O)c2ccccc2)c1	i
O=C(c1ccccc1)c1cc(Br)ccc1NS(=O)(=O)c1ccccc1	i
Clc1ccc(-c2noc(-c3cccc4ccccc34)n2)cc1	i
O=C(CN(c1ccc(Br)cc1)S(=O)(=O)c1ccccc1)N1CCOCC1	i
CCCCc1n[nH]c(=S)n1Cc1ccccc1	i
CCN1C(=O)C(O)(CC(=O)c2ccc(I)cc2)c2ccccc21 (stereo not given)	i
O=C(CN(Cc1ccc(Cl)cc1)S(=O)(=O)c1ccc(Cl)cc1)NC1CCCCC1	i
Other structures:
SMILES	Mtb H37Rv
Cc1c(Cl)cccc1NC(=O)C1C2C=CC(C3CC23)C1C(=O)O (stereo not given)	i
CCCCOc1ccc(C(=O)Nc2ccccc2C(N)=O)cc1	6%
COc1nccnc1NS(=O)(=O)c1ccc(NC(=O)c2cccs2)cc1	8%
C=CCn1c(CCC(=O)OC)nc2ccccc21	i
Cc1cc(C)cc(C(=O)Nc2sc3c(c2C#N)CCC(C)C3)c1 (stereo not given)	i
O=C(NCc1cccs1)C(=O)Nc1ccc2c(c1)OCO2	i
Cc1ccn(C(=O)c2cc3cc(Cl)ccc3oc2=O)n1	i
Cc1nn(Cc2cccc(C(=O)NCc3ccccn3)c2)c(C)c1Cl	i
O=C(NC1C=CS(=O)(=O)C1)c1sc2ccccc2c1Cl (stereo not given)	i
Cc1c(C(=O)Nc2cccc(C(=O)NCc3ccccc3)c2)oc2ccccc12	i
CC(=O)Oc1ccc(C2C(C(=O)OCc3ccccc3)=C(C)NC3=C2C(=O)CCC3)cc1 (stereo not given)	i
CCOc1ccc(C(=O)Nc2nnc(Cc3ccc(Cl)cc3)s2)cc1OCC	i
O=C(Nc1ccc2c(c1)OCCO2)c1cc(Cl)cc(Cl)c1	i
Cc1ccc(CN2CCC(N(C)Cc3ccccc3)CC2)cc1	3%
NS(=O)(=O)c1ccc(CNC(=S)NCc2ccco2)cc1	4%
COC(=O)c1ccccc1NC(=O)C(C(C)C)N1C(=O)c2ccccc2C1=O (stereo not given)	i
CC(C)NC(=O)COc1ccccc1Br	i
CCOC(=O)N1CCN(C(=O)N2CCOCC2)CC1	5%
CC1C(c2ccccc2)=[N+]([O-])C(C)(c2ccc(F)cc2)N1O (stereo not given)	i
CC(Nc1cc(N2CCN(C(=O)C(C)(C)C)CC2)ccc1[N+](=O)[O-])C12CC3CC(CC(C3)C1)C2 (stereo not given)	6%
CS(=O)(=O)N(CC(=O)Nc1ccc2c(c1)OCCO2)c1cccc(C(F)(F)F)c1	2%
Cc1sc2nc(SCC(=O)N3C(C)CCCC3C)n(-c3ccc(F)cc3)c(=O)c2c1C (stereo not given)	i
COc1ccc(C2C(C#N)=C(N)Oc3n[nH]c(-c4cccs4)c32)cc1Br (stereo not given)	i
COc1ccc(C(=O)Nc2ccccc2C(=O)O)cc1OC	4%
CCOC(=O)c1ccc(N2C(=O)CC(SCC(=O)Nc3ccc(C)cc3)C2=O)cc1 (stereo not given)	i
CC(=O)N/C(=N/c1nc(C)cc(C)n1)Nc1ccc(C)cc1	i
Cc1ccc(C(=O)O)cc1S(=O)(=O)NCC1CCCO1 (stereo not given)	i
O=C1Nc2ccc(S(=O)(=O)Nc3cccc(Br)c3)c3cccc1c23	i
O=C(CN1C(=O)C2C3C=CC(C3)C2C1=O)Nc1cc(C(F)(F)F)ccc1Cl (stereo not given)	i
O=C(Nc1cccc(Br)c1)c1cc2ccccc2o1	i
CN(c1ccc(C(=O)NCCSCc2c(F)cccc2Cl)cc1)S(C)(=O)=O	2%
CCc1c(O)nc(SC(C)C(=O)Nc2ccc(Cl)cc2)[nH]c1=O (stereo not given)	5%
Brc1ccccc1-c1nnc2scnn12	i
Cc1ccc(NC(=S)NC(=O)Cc2cccc3ccccc23)cc1C	i
NC(=O)C1CCN(C(=O)COc2ccc3ccccc3c2Br)CC1	i
C=C(C)COc1ccc2c(=O)c(Oc3ccccc3)c(C)oc2c1	7%
O=c1nc2sc3ccccc3n2c(=O)n1-c1ccc(Cl)cc1	i
Cc1ccc(N2CCN(S(=O)(=O)c3ccc(C)c(C)c3C)CC2)cc1C	i
O=c1ccn(Cc2ccccc2)c(=O)[nH]1	i
COc1nc(Oc2ccc(=O)[nH]n2)nc(N(C)C)n1	i
O=C(CCNS(=O)(=O)c1ccc(Cl)cc1)N1CCOCC1	i
CC(C)(C)CC(=O)Nc1ccccc1[N+](=O)[O-]	i
CCOc1ccccc1OC(=O)COC	i
CC1(C)C2CCC1(C)C(NC(=O)c1ccc(Cl)cc1Cl)C2 (stereo not given)	3%
CN(C(=O)c1ccc(COc2ccccc2Cl)o1)c1ccccc1	i
CCOc1ccc(N(CC(=O)NC2CCCC2)S(=O)(=O)c2ccc(Br)cc2)cc1	i
COc1cc(C(=O)Nc2ccccc2F)ccc1OCc1ccccc1	i
Cc1ccc(-c2cc(C(=O)NCc3cccnc3)c3ccccc3n2)cc1C	i
CCc1ccc(S(=O)(=O)N(C(C)=O)c2ccc(OC)cc2)cc1	6%
CCOc1ccc(NC(=O)c2ccoc2C)c([N+](=O)[O-])c1	4%
(more compounds)
SMILES	Mtb H37Rv
COc1ccc(OC)c(NC2=NC3(CCCC3)N=C(N)N2)c1	i
O=C(Nc1ccc(Cl)cc1)NC(Cc1ccccc1)C(=O)O (stereo not given)	1%
CCOC(=O)Cn1cnc2sc(C)c(C)c2c1=O	0%
Cc1ccccc1C(=O)N1CCC(C(=O)N2CCN(c3ccccc3)CC2)CC1	2%
CCC1CCCCN1C(=O)C1CC=CCC1C(=O)O (stereo not given)	i
O=C(O)c1ccccc1NC(=O)c1csc2c1CCCC2	3%
Cc1cc(=O)oc2c(I)c(OCC(=O)N3CCc4ccccc43)ccc12	i
CCC(C)N1CCN(C(=O)c2cccs2)CC1 (stereo not given)	0%
CS(=O)(=O)N(CC(=O)Nc1cccnc1)c1ccc(Oc2ccccc2)cc1	0%
N#CC1=C(SCC(=O)Nc2ccc([N+](=O)[O-])cc2)NC(=O)CC1c1ccc(F)cc1 (stereo not given)	31%

Compound activity: PubChem BioAssay, Southern Research Institute
